Bioassay records from PubChem BioAssay.
Menin-MLL FL inh: qHTS Assay for Inhibitors Targeting the Menin-MLL Interaction in MLL Related Leukemias: Competition With Fluorescein Labeled MLL-derived Peptide | 290,000 tested, under 10 active | AID 1766, 2009 | Fluorescence polarization, fluorescein-MLL peptide displacement from menin | FP activity change, % at 61.4 µM; inconclusive = falling polarisation curve, or a change in total fluorescence; inactive = total fluorescence flat and polarisation flat or rising; no compound was filed as active; the % refers to the polarisation; negative = inhibition;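 also: % of control where 0% means no effect; inhibitors lower the polarisation; unlabelled MLL peptide was the positive control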
gsp agonist: qHTS for Agonist of gsp, the Etiologic Mutation Responsible for Fibrous Dysplasia/McCune-Albright Syndrome: qHTS | gsp mutant cells, cAMP HTRF, 30 min; control for the full effect not named in the record | Potency, µM (series often up to 76.9 µM), without a hit: at the highest dose activation (cAMP increase), actives largely listed as activators | AID 624287, 2012 | hit rate 0.13% among 340,000; active = well fitted activation curve with a large enough effect; inconclusive = small, poorly fitted or top-dose-only effect, or another doubt; inactive = no such curve, though single readings can be large or run the other way; cell line not stated here;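 also: phosphodiesterase inhibitor Ro 20-1724 added with compounds to block cAMP breakdown; potency is read from the fitted curve at half-maximal effect; nearly all actives have a fitted effect of over 60% in size; about a fifth of the inactives were tested at one dose only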
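Cells in DMEM/10% FBS with G418 were pretreated with compounds in DMSO plus […] (300 uM stock) for 30 min at 37C. cAMP was measured by HTRF (cAMP-d2 plus anti-cAMP antibody-K) after 30 min at room temperature.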
gsp antagonist: qHTS for Antagonists of gsp, the Etiologic Mutation Responsible for Fibrous Dysplasia/McCune-Albright Syndrome: qHTS; gsp-mutant cells, cAMP HTRF, 30 min; control for the full effect not named in the record; Potency, µM (top dose mostly 76.9 µM), for the others: at the top dose activity change, negative = inhibition, hits mostly inhibitors; hit rate 0.4% among 340,000; AID 624288, 2012; active = falling curve of any shape with a large fitted effect; inconclusive = falling curve, mostly with a smaller effect; inactive = flat or rising curve; cell line not stated here;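 also: intracellular cAMP measured with PDE inhibitor Ro 20-1724 present during compound exposure; potency is read from the fitted curve at half-maximal effect; % is scaled to controls: 0 for no effect and ±100 for the full control effect; nearly all actives have a fitted effect of over 65% in size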
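HTRF cAMP measurement after 30 min RT detection following 30 min, 37C compound treatment alongside […] (added as 300 uM solution) in G418-selected cells seeded at 2000/well and grown 16–24 h.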
TRPV1 potentiator: HTS Assay for Compounds that Act as Potentiators of the Vanilloid Receptor 1; TRPV1-expressing cells, Fluo-8 calcium influx, capsaicin EC20 potentiation; host cell line not named in the record; control for the full effect not named in the record; potentiation, % at 8.33 µM; hit rate 0.02% among 320,000; active means potentiation above 80%; inconclusive means 30% to 80%; inactive means below 30%; also: 0% is about no effect
Target sequence (Q8NER1 whole entry, looked up): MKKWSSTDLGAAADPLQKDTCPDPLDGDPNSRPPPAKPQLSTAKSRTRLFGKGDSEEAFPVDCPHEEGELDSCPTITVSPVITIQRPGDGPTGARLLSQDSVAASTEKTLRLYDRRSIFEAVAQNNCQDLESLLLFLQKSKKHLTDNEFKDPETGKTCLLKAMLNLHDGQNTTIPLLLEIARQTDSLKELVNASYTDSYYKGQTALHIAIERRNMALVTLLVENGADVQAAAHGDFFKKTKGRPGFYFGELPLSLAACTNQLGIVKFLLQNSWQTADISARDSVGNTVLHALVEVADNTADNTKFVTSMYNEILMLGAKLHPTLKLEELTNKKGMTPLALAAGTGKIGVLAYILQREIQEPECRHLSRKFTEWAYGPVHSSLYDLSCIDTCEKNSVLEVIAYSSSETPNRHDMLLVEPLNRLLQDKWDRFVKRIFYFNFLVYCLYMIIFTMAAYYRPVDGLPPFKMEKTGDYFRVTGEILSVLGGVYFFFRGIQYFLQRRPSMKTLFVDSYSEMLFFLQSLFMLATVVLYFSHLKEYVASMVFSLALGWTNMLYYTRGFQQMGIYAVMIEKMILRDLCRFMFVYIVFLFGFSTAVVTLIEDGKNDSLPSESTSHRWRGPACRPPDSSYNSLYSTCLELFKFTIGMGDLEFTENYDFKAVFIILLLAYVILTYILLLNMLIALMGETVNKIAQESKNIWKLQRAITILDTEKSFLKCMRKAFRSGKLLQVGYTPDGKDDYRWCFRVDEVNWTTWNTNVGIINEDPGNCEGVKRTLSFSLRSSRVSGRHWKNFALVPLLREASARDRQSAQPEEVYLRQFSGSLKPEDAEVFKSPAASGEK
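Cells expressing TRPV1 were dye-loaded with Fluo-8 and read kinetically: 10 s baseline, 3 min after compound (agonist portion), then 2 min after EC20 capsaicin (allosteric enhancer portion). Calcium-bound dye fluorescence at 480/520 nm.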
D2 potentiator: Beta-Arrestin HTS for Positive Allosteric Modulators of the Human D2 Dopamine Receptor: Potentiators; D(2) dopamine receptor (Homo sapiens), P14416; DiscoveRx D2 beta-arrestin cells, luminescence, 90 min; 100% = 57 uM dopamine signal; hit rate 0.23% among 360,000; potentiation, % (no concentration beside the values); active = potentiation of 50% or more; inconclusive = 30% to 50%; inactive = 30% or less;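 also: compound concentration not given in the record; tested on top of an EC20 dose of dopamine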
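PathHunter beta-arrestin assay in DiscoveRx D2 cells. Compounds were added with an EC20 of dopamine (50 nM final) for 90 min at 37 deg C. Luminescence was read 1 h after detection reagent, with 57 uM dopamine as the EC100 control.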
Sfp inh: qHTS Assay for Inhibitors of Bacillus subtilis Sfp phosphopantetheinyl transferase (PPTase); AID 1490, 2009; Biochemical Sfp PPTase activity, qHTS; hit rate 3.5% among 310,000; Potency, µM, inactives show max response, negative = inhibition, actives largely listed as inhibitors; active = well fitted inhibition curve with a large enough effect; inconclusive = small, poorly fitted or top-dose-only effect, or another doubt; inactive = no such curve, though single readings can be large or run the other way;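 also: the enzyme is Sfp with the accession as filed and its product quenches rhodamine fluorescence; potency is read from the fitted curve at half-maximal effect; 0% = enzyme reaction without inhibitor and -100% = no enzyme wells; top concentration of the series not given in the record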
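Reaction rates are the 30-min fluorescence difference (ex 525, em 598 nm) in wells containing 15 nM Sfp, 5 uM rhodamine-CoA and 12.5 uM BHQ-2-YbbR at pH 7.6 with 10 mM MgCl2.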
ClpP mod: qHTS Assay for Activators of ClpP; ATP-dependent Clp protease proteolytic subunit (Bacillus subtilis (strain 168)), P80244; purified B. subtilis ClpP, FRET peptide cleavage, 20 min; Potency, µM (highest dose often 57.5 µM), inactives show top-dose activity change, negative = active; hit rate 1.9% among 340,000; AID 651965, 2013; active = well fitted falling curve with a large enough effect; inconclusive = small, poorly fitted or top-dose-only effect; inactive = no such curve, though single readings can be large or run the other way; also: potency is read from the fitted curve at half-maximal effect; the source files actives as falling curves though it sought activators and does not explain the sign; nearly all actives have a fitted effect of over 65% in size; many hits overshoot -100%
Target sequence (P80244 whole entry, looked up): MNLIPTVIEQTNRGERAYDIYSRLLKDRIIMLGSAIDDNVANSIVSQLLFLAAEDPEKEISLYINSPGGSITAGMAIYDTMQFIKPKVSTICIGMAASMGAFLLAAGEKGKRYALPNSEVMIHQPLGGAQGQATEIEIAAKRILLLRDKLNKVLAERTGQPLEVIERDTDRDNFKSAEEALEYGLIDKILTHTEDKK
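Buffer: 100 mM Tris/HCl pH8, 100 mM KCl, 0.05% low protease BSA, 2.5% glycerol, 0.01% Tween-20. ClpP 10 microg/mL final; 20 min RT; delta FRET normalized to ADEP and DMSO controls.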
* = called active by the depositor; u = inconclusive; x = not tested or not shown; [ ] = remark or other dose.

SMILES | Menin-MLL FL inh | gsp agonist | gsp antagonist | TRPV1 potentiator | D2 potentiator | Sfp inh | ClpP mod
C=CCOc1c(Br)cc(CNCCCN2CCOCC2)cc1OC | 0.1 | 3% | 10% | -9 | -6 | -3% | 0.0%
CC(=O)Cc1nsc(NC(=O)c2csc3c2CCCC3)n1 | 5.9 | -14% | -17% | -11 | -9 | 5% | -2.5%
CC(=O)Nc1cc2c(cc1Br)-c1ccccc1C2 | x | -7%[15.4 µM] | 17% | x | -11 | x | 0.8%
CCc1nnc(NC(=O)Cc2ccc(OC)cc2)s1 | 4.4 | 3% | 1% | 8 | 1 | 14% | -0.2%
CO/N=C/CC(=O)Nc1ccc(F)cc1F | 2.8 | -12% | 1% | 23 | 7 | 16% | 0.5%
CC1CC(=O)NN1C(=O)c1ccccc1 (stereo not given) | 0.4 | 28% | 5% | x | -3 | 10% | x
CCCCNC1(C#N)CCN(Cc2ccccc2)CC1 | x | 11%[15.4 µM] | -6% | x | -15 | x | 1.0%
O=C(NCc1ccccc1)c1cc(-c2ccncc2)nc2ccc(S(=O)(=O)N3CCOCC3)cc12 | 0.8 | 3%[15.4 µM] | -3% | 6 | -4 | -17% | -3.6%
COC(=O)CCC(=O)OC | x | x | 3% | x | -33 | x | -2.8%
COc1cc(NS(=O)(=O)c2cccc3nsnc23)cc(OC)c1 | 2.8 | -20% | u | 8 | -12 | -6% | -0.6%
N#C/C(=C\c1cn(-c2ccccc2)nc1-c1ccccc1)S(=O)(=O)c1ccccc1 | 11 | u | 8% | -10 | -1 | 9% | -7.9%
c1ccc(-c2cnc(SCCN3CCOCC3)n2CC2CCCO2)cc1 (stereo not given) | 4.3 | 10% | 12% | -8 | -16 | -20% | -5.8%
FC(F)(F)c1ccc(NCc2ccccn2)nc1 | 3.4 | 12% | 14% | 18 | -13 | 6% | -17%
Cc1ccc2nc(-c3cccc(N)c3)[nH]c2c1 | 1.4 | 7% | 6% | -6 | -9 | 5% | u
CC(=O)c1cccc(N/C=C\C(=O)c2ccc(C)cc2)c1 | 3.5 | -32%[inhibitor] | -16% | -24 | -20 | -14% | -8.2%
O=C(Nc1ccc(Cl)cc1)Nc1ccccc1C(=O)NCc1ccco1 | 2.4 | -30% | 9% | 2 | -5 | 15% | -26%
Cc1cc(Cl)c(S(=O)(=O)N2CCN(c3cccc(C)c3C)CC2)cc1OCC(N)=O | 0.6 | -41%[inhibitor] | 4% | -1 | -21 | -5% | 2.0%
CCN(C(=O)Cn1cnc2cc([N+](=O)[O-])ccc2c1=O)C1CCS(=O)(=O)C1 (stereo not given) | -9.0 | 9% | -1% | 9 | 10 | 20% | x
Cc1ccnc(NS(=O)(=O)c2ccc(NC(=O)c3cc(=O)c4ccccc4o3)cc2)n1 | x | u | 6% | 14 | -8 | 20% | 0.8%
COCCCNC(=S)N1CCN(S(C)(=O)=O)CC1 | 2.5 | 4% | 9% | 15 | u | 1% | -2.1%
O=C1CN(N=Cc2ccco2)C(=O)N1 | x | 29% | -10% | x | -6 | x | x
O=C(O)/C(=C\c1cn(-c2ccccc2)nc1-c1ccc(Cl)cc1)NC(=O)c1ccccc1 | 2.0 | 28% | -19% | -3 | -2 | 29% | 1.1%
O=C(c1ccco1)N1CCn2c1nc1ccccc12 | 4.7 | -18% | -4%[15.4 µM] | -5 | 1 | 26% | -1.4%
CC(=O)Nc1ccc(NCc2ccc(-c3ccccc3)cc2)cc1 | x | -21% | 9% | x | 0 | x | x
CCOCC(O)CS(=O)(=O)c1ccccn1 (stereo not given) | 0.7 | 14% | 0% | 7 | -2 | 13% | -2.1%
CCC1CCCCN1C(=O)CSc1nnc2nc(C)cc(C)n12 (stereo not given) | x | 7% | -14% | 0 | 7 | x | -7.8%
O=S(=O)(c1ccc(F)cc1)N1CCN(c2ccc(F)cc2)CC1 | -1.3 | -27% | -1% | -30 | -1 | 0% | -1.6%
COc1ccc(C(=O)/C=C/Nc2c(C)n(C)n(-c3ccccc3)c2=O)cc1OC | 7.0 | -18% | -9% | 8 | -20 | -10% | -1.9%
O=C(NC1CCCCC1)C1(S(=O)(=O)c2ccc(Cl)cc2)CC1 | 0.4 | -9% | 5% | -10 | -4 | 9% | x
COC(=O)c1c(NC(=O)C(C)(C)C)csc1C | 2.8 | 20%[15.4 µM] | 7% | -3 | -3 | 11% | x

SMILES | Menin-MLL FL inh | gsp agonist | gsp antagonist | TRPV1 potentiator | D2 potentiator | Sfp inh | ClpP mod
CN(CC(=O)Nc1ccc(Cl)cc1)S(=O)(=O)c1cccc2cccnc12 | -1.3 | -34% | u | -9 | -3 | 12% | 2.1%
Cc1nnc(SCC(=O)NC2CCCc3ccccc32)n1-c1ccccc1 (stereo not given) | -0.5 | 5%[15.4 µM] | -4% | 0 | -3 | 8% | 1.5%
CC(C)C(NC(=O)c1ccc(C(C)(C)C)cc1)C(=O)O (stereo not given) | 5.2 | 1% | 6% | -33 | -18 | 17% | 0.6%
CC(C)(C)NC(=O)CN(Cc1ccc(F)cc1)C(=O)Cn1nnc(-c2ccc(F)cc2)n1 | -3.6 | 0% | -2% | 0 | -4 | 6% | -0.8%
CCN(CC(=O)NCc1cccs1)C(=O)COc1ccccc1C#N | x | 6% | 18% | 11 | -8 | x | -7.4%
COc1ccc(NS(=O)(=O)c2cc(NC(=O)c3nn(C)c(=O)c4ccccc34)ccc2OC)cc1 | 8.3 | -13% | -5% | 7 | 0 | 15% | x
CC(=O)c1ccc(N2CCN(C(=O)Cc3ccccc3)CC2)c(F)c1 | 3.3 | 2%[15.4 µM] | -4% | -29 | -6 | 1% | -2.3%
Cc1ccc(S(=O)(=O)N2[C@@H](c3ccc(Cl)cc3)C(C(=O)O)=CC[C@H]2c2cccc(Cl)c2)cc1 | x | 5% | -20% | 28 | -3 | x | -0.7%
CC(C)CNS(=O)(=O)c1ccc(CCC(=O)N2CCN(c3ccccc3)CC2)cc1 | 0.0 | -17%[15.4 µM] | x | 6 | -8 | 4% | x
Cc1ccc(S(=O)(=O)N2CCCCC2)cc1NC(=O)Cc1c[nH]c2ccccc12 | 0.2 | 20%[15.4 µM] | -27% | 10 | -2 | 0% | 1.4%
COc1ccc(C(=O)COC(=O)c2ccc(Cl)nc2)cc1OC | x | 0%[15.4 µM] | 0% | -11 | 2 | x | 22µM*
Cc1cc(C=O)c(C)n1-c1ccc(N2CCOCC2)c([N+](=O)[O-])c1 | -0.6 | -14% | 3% | 8 | -1 | 5% | x
COc1cc(/C=C/C(=O)O)cc(S(=O)(=O)NNC(=O)c2ccc3c(c2)OCO3)c1OC | x | -2%[15.4 µM] | 2% | x | -6 | x | 1.9%
COc1ccc(CCCNC(=O)CC#N)cc1OC | -0.8 | -27% | 6% | -2 | 5 | 18% | 0.3%
COC(=O)[C@@H]1C(c2c(OC)cc(OC)cc2OC)=NO[C@H]1C(=O)OC | -1.0 | 31%[15.4 µM] | -3% | 9 | 4 | 3% | -0.6%
CC12CCC(=O)N1C(C(=O)N1CCN(c3ccc([N+](=O)[O-])cc3)CC1)CS2 (stereo not given) | x | -51%[inhibitor] | -17% | x | 3 | x | -3.1%
C/C(Cc1ccccc1)=N\NC(=O)CNC(=O)c1ccccc1Cl | -1.9 | 0% | 6% | -6 | -5 | -17% | x
COc1ccc(CCn2c(C)cc(C(=O)CCl)c2C)cc1OC | 3.6 | 3% | -22% | 5 | -13 | 16% | -0.7%
COc1ccccc1CCc1nnc(CCC(=O)N(C)Cc2ccncc2C)o1 | -8.0 | 14% | -1% | -6 | -9 | 11% | 1.5%
O=c1[nH]c2ccc(NS(=O)(=O)c3ccc(F)c(Cl)c3)cc2[nH]1 | -5.0 | -3%[15.4 µM] | 1% | 7 | 0 | 4% | 0.7%
COc1ccccc1N1CCN(Cc2cc(=O)c(OCC(=O)Nc3ccccc3)co2)CC1 | x | 14% | 5% | 6 | -1 | x | 25µM*
CC1=C(C(=O)N2CCOCC2)C(c2ccccc2F)NC(=O)N1 (stereo not given) | -0.6 | 6%[15.4 µM] | -5% | 2 | -3 | 5% | x
COc1cc(/C=N/NC(=O)c2cc(C)oc2C)ccc1OCc1ccccc1 | 0.9 | 1% | 5% | 12 | 0 | -1% | x
CCOCC(=O)Nc1c(C(=O)N2CCN(c3ncccn3)CC2)oc2ccccc12 | 0.5 | 23% | 9% | -8 | -2 | 4% | -13%
C=CCn1c(N)c(C(=O)N2CCOCC2)sc1=S | 1.9 | 21% | 6% | 0 | -3 | -22% | 0.5%
CCCc1cc(=O)c2ccc(OCC(C)=O)cc2o1 | 0.3 | -3%[15.4 µM] | 12% | 14 | -7 | 9% | -0.6%
O=C(/C=C/c1cccc(F)c1)OCC(=O)N1CCc2ccccc21 | x | -32%[inhibitor] | 0% | x | 1 | x | -2.6%
S=C(NCc1ccco1)Nc1cccc(Cl)c1Cl | -0.3 | -10% | 2% | -5 | -1 | 14% | x
COc1ccc(NC(=O)c2cc(-c3ccccc3)nc3c2cnn3C(C)C)c(OC)c1 | x | 4% | -21% | 8 | 3 | x | -6.4%
C/C(=C\C(=O)O)CC(=O)O | 2.5 | -17% | 14% | 3 | 0 | 13% | 1.1%
Cc1ccc(NC(=O)c2cc(-c3ccco3)nc3ccccc23)cc1S(=O)(=O)N1CCOCC1 | 7.1 | -12%[15.4 µM] | -2% | 9 | -4 | -10% | u
